Screening results as filed in PubChem.
WNV protease inh: inhibitors of West Nile virus NS2B-NS3 protease | P06935 | AID 577 | 65,000 compounds, 0.18% hits | z-score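 (tested at a level between 10 and 100 µM)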 | WNV NS2B-NS3 protease, fluorogenic substrate Ex360/Em465; hits give low values;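 active = z-score at -3 or under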;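 note: score is relative to mean and spread of the compound wells of a plate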
An asterisk follows results filed as active. The list is partial; the hit share may differ from the screen's.

SMILES	WNV protease inh
COc1cc2nc(N3CCN(C(=O)C4COc5ccccc5O4)CC3)nc(N)c2cc1OC (configuration not stated)	0.18
